# Screening results from PubChem BioAssay.
# KCNQ2 inh: KCNQ2 channel blockers in CHO-K1 cells – cell-based, FluxOR thallium flux, B-score, primary screen (AID 2156). O88943. 20 min; hits give low values; only compounds with negative scores are shown here; some inactives read as strong as hits. B-score at 10 µM. 310,000 compounds, 1.1% hits;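 active means fluorescence ratio B-score at most minus 3 library SDs, with starting brightness B-score within 2 library SDs, cut at about -5.5 in these data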
# Target sequence (O88943 whole entry, looked up): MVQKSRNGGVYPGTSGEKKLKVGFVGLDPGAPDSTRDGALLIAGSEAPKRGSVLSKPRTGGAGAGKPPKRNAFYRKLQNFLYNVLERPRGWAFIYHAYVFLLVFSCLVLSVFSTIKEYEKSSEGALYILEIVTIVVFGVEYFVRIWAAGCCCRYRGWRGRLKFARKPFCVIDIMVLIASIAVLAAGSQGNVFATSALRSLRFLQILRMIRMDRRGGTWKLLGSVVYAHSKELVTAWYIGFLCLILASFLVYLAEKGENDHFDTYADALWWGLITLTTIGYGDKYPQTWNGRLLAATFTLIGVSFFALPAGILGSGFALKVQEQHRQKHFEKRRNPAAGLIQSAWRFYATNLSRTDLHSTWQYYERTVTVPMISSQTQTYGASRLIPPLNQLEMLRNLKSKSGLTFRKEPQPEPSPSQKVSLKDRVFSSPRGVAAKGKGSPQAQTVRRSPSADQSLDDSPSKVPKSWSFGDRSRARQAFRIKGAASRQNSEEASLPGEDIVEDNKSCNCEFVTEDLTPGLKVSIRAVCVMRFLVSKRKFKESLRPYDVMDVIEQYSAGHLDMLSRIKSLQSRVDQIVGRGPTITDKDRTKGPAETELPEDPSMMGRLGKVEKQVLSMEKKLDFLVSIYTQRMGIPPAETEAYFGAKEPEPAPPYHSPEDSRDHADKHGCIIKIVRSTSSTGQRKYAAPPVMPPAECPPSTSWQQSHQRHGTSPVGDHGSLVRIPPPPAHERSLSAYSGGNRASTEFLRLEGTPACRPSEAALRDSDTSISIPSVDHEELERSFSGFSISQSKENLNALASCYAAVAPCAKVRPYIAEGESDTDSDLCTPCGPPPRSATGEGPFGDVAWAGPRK
# KCNQ2 inh baseline: second read-out of KCNQ2 inh, no call of its own (marks repeat the call); B-score; measured here: initial fluorescence intensity artifact check;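 brightness before thallium and not channel activity; 0 = typical well and far values either way flag optical interference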
# * hit, by the source's call; i = inactive. Some of the compounds tested (hit frequency here may not be typical).
KCNQ2 inh baseline	KCNQ2 inh	SMILES
-0.02	i	Cn1c(C(=O)N2CCC(C(N)=O)CC2)cc2c(=O)n(C)c3ccccc3c21
1.5	i	CCOP(=O)(c1c(F)c(F)c(F)c(F)c1F)C(O)c1ccccc1 (stereo not given)
-0.38	i	O=c1c(C=Nc2cccc(C(F)(F)F)c2)c[nH]n1-c1cccc(Cl)n1
2.3	i	COC(=O)c1ccc(/C=N/NC(=O)CCSc2nc3ccccc3s2)cc1
1.1	i	COc1ccc(CSCCc2n[nH]c(=S)n2-c2ccccc2)cc1
0.77	i	O=C(Nc1nccs1)C1(c2ccc(Cl)cc2)CC1
0.37	i	Cc1c(Cl)c([N+](=O)[O-])nn1CC(=O)NCc1cccnc1
-0.03	i	O=C(NCCN1CCOCC1)C(=O)NCC1OCCN1S(=O)(=O)c1ccccc1 (stereo not given)
0.77	i	CCCNC(=S)Nc1ccccc1
-0.37	i	O=C(c1ccccc1)c1cc(-c2ccccn2)c(N2CCOCC2)s1
-0.17	i	CC(=O)Nc1ccc(S(=O)(=O)N2CCN(Cc3cccc([N+](=O)[O-])c3)CC2)cc1
-0.28	i	O=C1C=C(N(CCO)Cc2ccccc2)c2ccccc2C1=O
-0.29	i	COc1ccc(OC)c(NC(=O)CSc2nnnn2C2CCCC2)c1
0.99	i	COc1ccc(OC)c(NC(=O)CSc2nc(-c3ccccc3)cc(=O)[nH]2)c1
-0.74	i	Cc1nc(-c2cccc(NC(=O)c3cccs3)c2)cs1
1.7	i	Cc1ccc(Cn2c(SCC(=O)Nc3cc(C)on3)nc3ccccc3c2=O)cc1
-1.3	i	CCCCNS(=O)(=O)c1ccc2nc(-c3cccnc3)cc(C(=O)NCCOC)c2c1
-0.03	i	Cc1ccc(-n2nc(C(=O)c3ccccc3)n3c(=O)cc(-c4ccccc4)nc23)cc1
1.8	i	Brc1ccccc1OCCOc1cccc2cccnc12
-1.3	i	Cc1nn2c(NCCCN3CCOCC3)c3c(nc2c1-c1ccccc1)CCC3
0.17	i	CCC(CO)NC1=CC(=O)CCC1 (stereo not given)
-0.19	i	Cc1nc2ccccc2c(C)c1C(=O)c1ccccc1
-0.11	i	COc1ccc(C(=O)Nc2cc(C)on2)cc1
0.13	i	NC(=O)c1ccc(C(F)(F)F)n(Cc2ccc(F)c(F)c2)c1=O
-0.11	i	CCCC(=O)Nc1cccc(NC(=O)CN2CCN(c3ccccc3OC)CC2)c1
-0.35	i	Cc1ccc(NS(=O)(=O)c2c(C(=O)N3CCCCCC3)c(C)n(C)c2C)c(C)c1
1.5	i	O=C(O)COn1c(-c2ccccc2)nc2ccc(Cl)cc21
2.1	i	COc1cccc(C(C(=O)NCC2CCCO2)N(CC2CCCO2)C(=O)CN2C(=O)c3ccccc3S2(=O)=O)c1 (stereo not given)
4.1	i	O=[N+]([O-])c1cccc(-c2nc3ccccc3s/c2=N/O)c1
-0.45	i	CC(=O)Nc1ccc(C(=O)OCC(=O)NC2CCCCCCC2)cc1
-0.51	i	c1ccc(OCc2nc3ccccc3s2)cc1
0.92	i	COc1ccc(C(NC(=O)CNC(C)=O)C(=O)Nc2ccc3c(c2)OCCO3)cc1 (stereo not given)
0.19	i	Cc1c(CC(=O)O)c(=O)oc2c(C)c(OCc3ccc(F)cc3Cl)ccc12
-0.79	i	Cc1ccc(-c2ccc(/C=N/NC(=O)Cc3nnc(N)s3)o2)cc1Cl
-0.99	i	O=C(CCC(=O)NNC(=S)Nc1ccccc1)NCc1ccccc1
-0.23	i	CC1CCCC(NC(=O)C2CCN(S(=O)(=O)c3cnc[nH]3)CC2)C1C (stereo not given)
3.1	i	O=S(=O)(c1ccc(Cl)cc1)N1c2ccccc2Oc2nc3ccccc3nc21
-0.01	i	O=C(CSc1nc2[nH]ncc2c(=O)[nH]1)c1ccccc1
-0.08	i	COc1cc(OC)c(OC)cc1/C=N/n1c(C)nnc1C
0.39	i	Cn1ccnc1SCC(=O)c1ccc(Cl)cc1

# Looked up by structure from above (six):
KCNQ2 inh baseline	KCNQ2 inh	SMILES
-0.99	i	O=C(CCC(=O)NNC(=S)Nc1ccccc1)NCc1ccccc1
3.1	i	O=S(=O)(c1ccc(Cl)cc1)N1c2ccccc2Oc2nc3ccccc3nc21
-0.01	i	O=C(CSc1nc2[nH]ncc2c(=O)[nH]1)c1ccccc1
-0.23	i	CC1CCCC(NC(=O)C2CCN(S(=O)(=O)c3cnc[nH]3)CC2)C1C (stereo not given)
-0.79	i	Cc1ccc(-c2ccc(/C=N/NC(=O)Cc3nnc(N)s3)o2)cc1Cl
-0.08	i	COc1cc(OC)c(OC)cc1/C=N/n1c(C)nnc1C

# Other structures follow:
KCNQ2 inh baseline	KCNQ2 inh	SMILES
1.6	i	O=C(CSc1nnnn1Cc1ccccc1)Nc1ccccc1
1.2	i	COc1ccc(CNn2c(C)nc3ccccc3c2=O)cc1
-0.87	i	O=C(O)C1C2CCC(C2)C1C(=O)NCCc1ccc(F)cc1 (stereo not given)
-0.88	i	CC(C)c1ccc(N(C(=O)c2csnn2)C(C(=O)NC2CCCC2)c2ccncc2)cc1 (stereo not given)
0.68	i	COC(=O)/C(=C/c1ccc2c(c1)c1ccccc1n2C)NC(=O)c1ccccc1
1.8	i	CCOC(=O)CCCNC(=O)CCNC(=O)c1ccc(OC(C)C)cc1
-0.71	i	CS(C)(=O)=NS(=O)(=O)c1ccc(Cl)cc1
-0.15	i	COc1ccc(N(C(=O)Cn2nnc(-c3ccc(F)cc3)n2)C(C)C(=O)NC2CCCC2)cc1OC (stereo not given)
1.3	i	CC(=O)NCC(c1cccs1)S(=O)(=O)c1ccc(F)cc1 (stereo not given)
-0.41*	-6.7*	O=C(Oc1ccc2ccccc2c1Br)N1CCCCCC1
0.04	i	COc1cc(-c2nc3ccccn3c2/N=C/c2cc(OC)c(OC)c(OC)c2)ccc1O
0.61	i	CCN(CC)C(=O)CCSc1nnc(-c2ccncc2)o1
-0.95	i	O=c1[nH]c(CN2CCN(c3ccccc3O)CC2)nc2scc(-c3ccccc3Cl)c12
-2.9	i	CCOC(=O)C(CC)n1cnc2c(nnn2-c2ccc(F)cc2)c1=O (stereo not given)
-0.95	i	Clc1ccc(-c2onc3c2CCCC3)cc1
1.3	i	COc1ccc2nc3cc(Cl)ccc3c(Nc3cc(C(C)C)c(O)cc3C)c2c1

# Record cards, from the list above. Screens in order: KCNQ2 inh baseline | KCNQ2 inh
# `O=c1[nH]c(CN2CCN(c3ccccc3O)CC2)nc2scc(-c3ccccc3Cl)c12` is listed as -0.95 | i
# `COc1ccc2nc3cc(Cl)ccc3c(Nc3cc(C(C)C)c(O)cc3C)c2c1` is listed as 1.3 | i
# `Clc1ccc(-c2onc3c2CCCC3)cc1` is listed as -0.95 | i
# `O=C(Oc1ccc2ccccc2c1Br)N1CCCCCC1` is listed as -0.41* | -6.7*

# (further entries)
KCNQ2 inh baseline	KCNQ2 inh	SMILES
-1.1*	-6.8*	O=C(NCc1cccnc1)c1ccc(-c2cc(Cl)ccc2Cl)o1
-0.39	i	COc1ccc(-c2cc(C#N)nc(Oc3ccc(Cl)cc3)n2)cc1
0.2	i	CCOc1ccc(NC(=O)CN(C)Cc2cc(=O)n3c(-c4ccccc4)csc3n2)cc1OCC
1	i	CCc1nnc(NC(=O)C(NS(=O)(=O)c2ccc3c(c2)OCCO3)C(C)C)s1 (stereo not given)
-0.99	i	Cc1ccc(O)c(-c2cc(-c3ccccc3C)[nH]n2)c1
-0.9	i	CCc1ccc(-c2nc(SCC(=O)N(CC)C3CCS(=O)(=O)C3)n[nH]2)cc1 (stereo not given)
-0.02	i	Cc1ccccc1S(=O)(=O)Nc1nc2ccccc2nc1N1CCc2ccccc2C1
-0.05	i	Cc1cc(Cl)ccc1OCCNC(=S)NC(=O)c1cccnc1

# 3 structures from above, sorted by molecular weight, ascending.
KCNQ2 inh baseline	KCNQ2 inh	SMILES
-0.99	i	Cc1ccc(O)c(-c2cc(-c3ccccc3C)[nH]n2)c1
-0.05	i	Cc1cc(Cl)ccc1OCCNC(=S)NC(=O)c1cccnc1
1	i	CCc1nnc(NC(=O)C(NS(=O)(=O)c2ccc3c(c2)OCCO3)C(C)C)s1 (stereo not given)

# Continuation:
KCNQ2 inh baseline	KCNQ2 inh	SMILES
-0.71	i	CCSc1n[nH]c2nc3c(c(=O)n12)C1(CCCC1)Cc1ccccc1-3
0.84	i	O=C(CC1SC(=Nc2ccccc2)N(CCO)C1=O)Nc1ccccc1 (stereo not given)
-0.01	i	CCC(CC)C(=O)c1c[nH]c(C(=O)NCc2ccncc2)c1
0.51	i	Fc1ccccc1-c1[nH]ncc1-c1nnnn1-c1ccccc1
-0.61	i	Cc1cccc(C)c1OCc1cc(C(=O)N2CCN(c3ccccn3)CC2)no1
1.9	i	CN(Cc1ccccc1)C(=O)COC(=O)c1cncc(Br)c1
1.8	i	COc1ccc2c(c1OC)C(=O)N(c1cccc(C)c1)C2
-0.66	i	CCOc1ccccc1C(=O)N1CCC(n2nnc3cc(C(F)(F)F)ccc32)CC1
-1.1	i	NC(=S)N/N=C\c1c(OCc2ccccc2Cl)ccc2ccccc12
1.3	i	CCn1c(SCC(=O)Nc2cc(C)on2)nc2c1c(=O)n(C)c(=O)n2C
-0.86	i	CC(C)C[C@H](NC(=O)OC(C)(C)C)C(=O)NCC1CCC(C(=O)N[C@@H](Cc2ccccc2)C(=O)O)CC1 (stereo not given in full)
-0.2	i	O=C(CN1C(=O)NC(Cc2c[nH]c3ccccc23)C1=O)NCCc1ccc(F)cc1 (stereo not given)
0.72	i	COc1ccc(OC)c(C(=O)NC(CC(N)=O)c2ccc(N3CCN(c4ccccn4)CC3)c([N+](=O)[O-])c2)c1 (stereo not given)
0.13	i	COc1ccc([N+](=O)[O-])cc1NCc1ccccc1
-1.8	i	Cc1nn(C(C)(C)C)c(C)c1/C=N/OC(=O)Nc1ccc(Cl)c(Cl)c1
-0.21	i	CC(C)COC(=O)CNc1n[nH]c(=S)[nH]c1=O
1.1	i	CN(C)c1ccc(C(CNC(=O)COc2ccc(Cl)cc2)N2CCCC2)cc1 (stereo not given)
1.6	i	COc1cc2c(cc1OC)C(C)N(C(=O)Nc1ccc(F)cc1)CC2 (stereo not given)
0.63	i	CN(C)S(=O)(=O)c1cccc(NC(=O)c2sccc2-c2ccccc2)c1
-0.07	i	CCN(CC)C(=S)SCC(=O)c1ccc(Br)cc1
-0.81	i	CCOC(=O)c1ccc(NC(=O)C2(c3ccc(Cl)cc3)CCCC2)cc1
0.67	i	CC(=O)Nc1cc(C(=O)N2CCc3ccccc3C2)ccc1Sc1ccc(F)cc1
-0.75	i	Cc1ccc(C(=O)OCc2nc3ccccc3s2)o1
-0.58	i	Cn1c(=O)c2[nH]c(NCCCN3CCOCC3)nc2n(C)c1=O
-0.4	i	CC(C)C(C(=O)NCc1ccco1)N(Cc1ccco1)C(=O)CNS(=O)(=O)c1ccccc1 (stereo not given)
-0.51	i	Cc1ccccc1/C=N/n1c(-c2ccccn2)n[nH]c1=S
0.43	i	O=C1N/C(=N\N=C\c2cccs2)SC1Cc1ccc(Cl)cc1Cl (stereo not given)
1.2	i	Nc1n[nH]c(N)c1N=Nc1ccc(F)cc1
-0.71	i	O=c1[nH]nc(-c2ccc(NCCCO)c([N+](=O)[O-])c2)c2ccccc12
-0.02	i	COc1ccccc1CNC(=O)C(=O)NCC1CCCO1 (stereo not given)
-0.54	i	CC(=O)c1ccc(Oc2nc3c(c(=O)n(C)c(=O)n3C)n2C)cc1
-1.8	i	CCSc1cc(N2CCOCC2)nc(-c2ccccc2)n1
0.25	i	CCc1nnc(NC(=O)c2ncc(Cl)c(Cl)c2Cl)s1
0.53	i	CN1CCN(C(=O)C(=O)c2cn(CC(=O)N3CCCC3)c3ccccc23)CC1
0.13	i	O=S(=O)(Nc1ccc(-c2cn3ccccc3n2)cc1)c1ccccc1
-2	i	Cc1ccc(C(=O)C2C(c3ccc(-c4ccccc4[N+](=O)[O-])o3)NC(=O)NC2(O)C(F)(F)F)cc1 (stereo not given)
-0.26	i	CC(NS(=O)(=O)/C=C/c1ccccc1)C(=O)NCCc1ccc(S(N)(=O)=O)cc1 (stereo not given)
2.3	i	CCOC(=O)Cn1cncc1-c1ccc([N+](=O)[O-])cc1
-0.4	i	COc1ccc2c(c1)c1ncn(Cc3ccccn3)c(=O)c1n2C
1.5	i	COC(=O)/C=C/c1c(C)[nH]c(=O)[nH]c1=O
-0.7	i	CC(C)N(Cc1ccccc1)C(=S)Nc1cccnc1
0.34	i	Cc1c(Cl)cccc1N1C(=O)c2ccccc2C1=O
0.03	i	CC(C)(CO)C(O)C(=O)NCCC#N (stereo not given)
0.41	i	CN(C)S(=O)(=O)c1cccc(C(=O)NCc2cccs2)c1
-0.73	i	COC(=O)CN1C(=O)N/C(=C/c2ccc(OC)cc2)C1=O
0.1	i	CCn1nc(C(=O)OC2CCOC2=O)c2ccccc2c1=O (stereo not given)
1.9	i	Cc1ccc(NC(=O)CSc2nc3ccccc3c(=O)n2CCCN2CCCCC2)cc1C
-0.99	i	Cc1cc(N/N=C/c2ccc3c(c2)OCO3)nc2ccccc12
-0.72	i	Cc1ccc(N(CC(N)=O)C2SC(=O)N(Cc3ccccc3)C2=O)cc1 (stereo not given)
-0.42	i	O=C(c1ccc2c(c1)OCO2)N1CCN=C1SCc1cccnc1
-0.03	i	CCCN(CCC)CCNC(=O)CCC(=O)Nc1ccc2nc(N3CCOCC3)cc(C)c2c1
1.1	i	CCOc1ccccc1C=Nc1ccccc1C(=O)Nc1ccccc1
1.1	i	C/C(=N\NC(=O)c1c(Cl)c(C)nn1C)c1ccc(NC(=O)c2ccncc2)cc1
-0.57	i	COc1cc(CNc2nnnn2C)ccc1OCc1c(F)cccc1Cl
-1.2	i	Cc1ccnc(NC(=O)CCNC(=O)c2ccc(Cl)cc2)c1
-0.02	i	O=C(Nc1ccccc1-c1ccccc1)c1ccccc1[N+](=O)[O-]
-2.3	i	O=C1CCCC/C1=C/NCc1ccc(F)cc1
-0.55	i	CC12CN(S(=O)(=O)c3ccccc3)CC(C)(CN(S(=O)(=O)c3ccccc3)C1)C2
-0.01	i	Cc1ccc2c(=O)cc(C(F)F)oc2c1
